FGF22 binding = binders of human FGF22 protein, primary screen, FGF22 synaptogenesis inhibitor project, biophysical, thermal shift, single point. Fibroblast growth factor 22 (Homo sapiens), Q9HCT0. recombinant FGF22 thermal shift, SYPRO orange fluorescence; percent of sucrose octasulfate shift, DMSO zero. calls only at 9.99 µM. 340,000 tested, 1.5% active. AID 651658, 2012;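 active means melting point raised past a set limit in the mean and every replicate; three in four hits are not shown here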
UCH37 DUB inh = inhibitors of human UCH37 deubiquitinase, primary screen, biochemical, Ub-AMC cleavage, fluorescence | inhibition, % (no concentration beside the values) | 330,000 tested, 0.33% active | purified proteasome/UCH37 | Ubiquitin carboxyl-terminal hydrolase isozyme L5 (Homo sapiens), Q9Y5K5;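 active means mean of two replicates above 20%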;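 further: 0% = compound-free wells with enzyme and 100% = wells lacking proteasome; stock transfer was 100 nL into about 20 µL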
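System: Proteasome-associated human UCH37 deubiquitinase; Input: 0.15 nM proteasome in added enzyme buffer; Also added: Ub-AMC substrate from 1 µM stock; Incubation: 30 min compound-proteasome preincubation then 25 min substrate reaction, room temperature; Detection: fluorescence, ex 355 nm, em 460 nm; Read-out: % inhibition of Ub-AMC cleavage fluorescence; Benchmarks: no-proteasome and no-compound wells.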
Ecoli growth = E. coli growth inhibition, primary screen, OD600. Escherichia coli growth, 23 h; active compounds read low. OD600 absorbance (concentration not given with the values). 330,000 tested, 0.21% active. AID 1053175, 2014;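 active means OD600 absorbance below the run mean of sample wells minus 3.6 SD, in any replicate, cut at about 0.56 in these data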;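 further: stock transfer was 300 nL into about 60 µL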
ALR H2O2 inh = inhibitors of human ALR sulfhydryl oxidase, primary screen, biochemical, H2O2 detection, HRP-luminol luminescence, single point. FAD-linked sulfhydryl oxidase ALR (Homo sapiens), P55789. purified ALR, DTT oxidation. inhibition, % (concentration not given with the values). 290,000 tested, 3.8% active. AID 485317, 2010;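 active means mean and each replicate at 75% or more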;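 further: stock transfer was 7.5 nL into about 7.5 µL; 0% = neutral wells and 100% = wells with inactivated enzyme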
Beta2AR agonist = beta2AR agonists driving receptor internalization, primary screen, cell-based, FAP fluorogen, flow cytometry; Beta-2 adrenergic receptor (Homo sapiens), P07550; Am2.2-beta2AR cells; reference of the scale not given here; response, % (concentration not given with the values); 340,000 tested, 0.43% active; AID 504454, 2011;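 active means response above a set limit, near 3 SD of response in nonfluorescent compounds, cut at about 42% in these data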;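 further: stock transfer was 100 nL into about 11 µL; a reference agonist was the positive control; negative values mostly stem from fluorescent compounds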
LANA-H2B inh = blockers of LANA interaction with H2A/H2B – biochemical, FP readout, HTS, primary screen; inhibition, % (test concentration not listed); cell-free LANA-H2A/H2B peptide, fluorescence polarization; AID 2629, 2010; 320,000 tested, 0.6% active; in the data active means inhibition mostly above about 10%, no sharp cut-off; inactive means mostly below about 6.7%;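 further: stock transfer was 7.5 nL into about 10 µL; 0% = median of vehicle wells and 100% = median of positive control wells; one replicate is shown; the record names a cut of 25% in any replicate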
Target sequence (Q9QR71 whole entry, looked up): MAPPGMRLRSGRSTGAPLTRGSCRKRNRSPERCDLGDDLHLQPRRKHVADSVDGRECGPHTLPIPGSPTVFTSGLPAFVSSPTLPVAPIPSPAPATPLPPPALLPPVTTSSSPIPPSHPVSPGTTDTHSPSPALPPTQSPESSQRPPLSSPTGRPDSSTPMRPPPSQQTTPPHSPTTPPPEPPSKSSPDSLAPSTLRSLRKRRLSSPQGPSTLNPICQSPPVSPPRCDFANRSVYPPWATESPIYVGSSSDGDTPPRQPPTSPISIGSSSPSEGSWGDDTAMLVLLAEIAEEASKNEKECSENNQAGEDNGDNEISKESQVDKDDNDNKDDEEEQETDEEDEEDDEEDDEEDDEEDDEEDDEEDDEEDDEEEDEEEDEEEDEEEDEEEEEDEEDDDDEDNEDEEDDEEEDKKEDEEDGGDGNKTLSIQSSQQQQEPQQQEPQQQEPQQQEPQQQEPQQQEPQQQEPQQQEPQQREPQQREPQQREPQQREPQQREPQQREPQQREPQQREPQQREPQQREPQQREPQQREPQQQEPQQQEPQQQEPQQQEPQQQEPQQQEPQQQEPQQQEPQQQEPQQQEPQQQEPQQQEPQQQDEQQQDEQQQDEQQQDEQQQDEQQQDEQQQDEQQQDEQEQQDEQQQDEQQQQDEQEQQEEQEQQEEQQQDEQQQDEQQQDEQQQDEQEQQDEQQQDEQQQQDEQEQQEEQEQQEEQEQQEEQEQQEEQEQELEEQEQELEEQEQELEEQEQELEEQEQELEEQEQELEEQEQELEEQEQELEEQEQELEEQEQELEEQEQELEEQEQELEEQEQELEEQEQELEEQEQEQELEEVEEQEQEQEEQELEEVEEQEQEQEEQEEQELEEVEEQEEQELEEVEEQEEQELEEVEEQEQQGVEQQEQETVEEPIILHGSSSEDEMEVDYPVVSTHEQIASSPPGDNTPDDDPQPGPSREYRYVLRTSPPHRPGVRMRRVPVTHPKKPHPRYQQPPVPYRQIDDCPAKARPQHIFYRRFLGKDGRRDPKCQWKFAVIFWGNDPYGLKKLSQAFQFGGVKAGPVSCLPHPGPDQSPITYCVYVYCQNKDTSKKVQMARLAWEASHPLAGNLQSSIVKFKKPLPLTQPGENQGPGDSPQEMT
HNF4A DNA FP = change in binding of human HNF4A to DNA, primary screen, biochemical, fluorescence polarization, FITC-DNA | activity change, % at 10 µM | Hepatocyte nuclear factor 4-alpha (Homo sapiens), P41235 | 1 h | 360,000 tested, 0.3% active; in the data active means activity change above about 30%, passing the limit was not always enough;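 further: controls were the assay level and a saturating level of protein; the project sought stronger binding though the title names inhibitors; some compounds called inactive have numbers as strong as hits; positive values seem to mean higher polarization but the record does not say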
* hit, by the source's call; i = inactive; . = not tested or not shown; & = joins results of further samples. An excerpt; rates above refer to the full screens.

SMILES | FGF22 binding | UCH37 DUB inh | Ecoli growth | ALR H2O2 inh | Beta2AR agonist | LANA-H2B inh | HNF4A DNA FP
COC(=O)/C(=C/c1ccco1)NC(=O)c1ccc(Br)o1 | i | 6.0 | 0.684 | 7.4 | -0.4 | -5.8 | 3.0
Cc1cccc(N2CC(C(=O)Nc3ccc(S(=O)(=O)Nc4nccs4)cc3)CC2=O)c1C (centres undefined) | i | 0.4 | 0.711 | -7.3 | 1.8 | 1.1 | 1.7
O=C(N/C(=C/C=C/c1ccccc1)C(=O)N1CCOCC1)c1ccccc1Cl | i | 11.5 | 0.66 | 2.7 | 2.4 | -2.1 | -5.3
C#CCNC(=O)C1=C[C@@H](C2CCCCC2)C[C@@H](OCc2ccc(CO)cc2)O1 | i | 5.0 | . | -5.6 | -3.0 | 3.1 | 1.5
COc1ccc(/C=C/C(=O)c2ccc([N+](=O)[O-])o2)cc1 | i | -0.8 | . | -4.8 | 59.2* | -1.2 | 2.5
FC(F)(F)c1cccc(CN2CCC(c3cc(-c4cccs4)n[nH]3)CC2)c1 | i | 0.3 | 0.647 | 3.6 | 27.2 | -1.4 | 0.6
Cc1cc(C)nc(SC2c3cccc4cccc(c34)C2NS(=O)(=O)c2ccccc2)n1 (centres undefined) | . | 4.1 | 0.717 | . | -7.0 | . | -1.2
COc1ccc(-c2cc(C(=O)Nc3cc(S(=O)(=O)N4CCOCC4)ccc3N3CCOCC3)c3ccccc3n2)cc1 | i | -30.9 | 0.704 | -5.2 | 7.3 | 1.5 | 2.0
O=C(c1ccc(F)cc1)N1CCCC(C(=O)N2CCCCC2)C1 (centres undefined) | i | 1.0 | 0.734 | -2.5 | 2.1 | -1.1 | 0.8
CC1(C)CC(=O)c2cc(OCC(=O)NCCN3CCCc4ccccc43)ccc2O1 | . | -270.5 | 0.688 | -2.0 | -11.2 | 0.2 | 0.2
O=C(O)c1nn(CCOc2ccccc2F)c(=O)c2ccccc12 | i | 1.2 | 0.622 | -12.6 | -1.3 | 0.6 | -0.8
Cn1c(/N=C/c2cc(Cl)ccc2O)nc2ccccc21 | i | . | . | -5.9 | . | -5.1 | .
COc1ccc(NC(=O)Cn2c3ccccc3c3nc4n(c(=O)c32)CCS4)cc1 | i | -23.0 | 0.729 | -15.6 | -4.6 | -3.4 | 7.2
CC(=O)N(c1ccc2oc(=O)sc2c1)S(=O)(=O)c1ccc(C(=O)O)cc1 | i | 0.8 | 0.712 | . | 3.2 | 9.1 | -4.1
O=C(CSc1ccc(-c2ccco2)nn1)N1CCCCCC1 | i | -0.8 | 0.705 | 51.1 | -5.9 | -3.3 | -5.9
O=C1[C@H]2[C@@H](c3ccc(F)cc3)N3C(=O)N(c4cccc(Cl)c4)C(=O)[C@@]3(Cc3ccccc3)[C@H]2C(=O)N1C1CCCCC1 | i | 1.6 | . | -1.2 | -0.8 | 5.8 | 1.9
Cc1cc(C(F)(F)F)c2c(N)c(C(=O)NC3CC3)sc2n1 | i | 6.2 | 0.729 | 3.9 | 7.2 | -1.8 | 1.9
CSc1nc(NNC=O)cc(Oc2ccc(NC(C)=O)cc2)n1 | i | -0.8 | 0.713 | 57.5 | -13.7 | 2.1 | 1.4
COc1ccc(NC(=O)CCCn2nc(C)c3c(C)n(-c4ccccc4)nc3c2=O)cc1OC | i | 2.7 | 0.68 | -11.1 | -2.7 | 1.9 | 0.3
COc1ccc(CN2C(=O)c3cccc4cccc(c34)C2=O)cc1 | i | -69.1 | 0.698 | -3.7 | 1.8 | 1.0 | -1.7
Nc1cc2c(cc1C(=O)c1cccc(Br)c1)OCCO2 | . | 1.1 | 0.665 | 16.6 | -2.8 | 6.4 | 2.1
COc1ccc(OCC(=O)OC(C)CN2CCOCC2)cc1 (centres undefined) | . | 5.3 | 0.71 | -1.2 | 3.1 | -4.6 | 0.6
O=C(CCl)N1c2ccccc2CCc2ccccc21 | i | . | . | 3.1 | 9.5 | 0.9 | 1.0
Cc1cc([N+](=O)[O-])nn1CCCC(=O)NC(C)c1ccccc1 (centres undefined) | i | 2.4 | 0.709 | -3.6 | -5.9 | -2.9 | 4.8
NC(=O)c1ccc(NC(=O)COC(=O)/C=C/c2cn(-c3ccccc3)nc2-c2cccnc2)cc1 | i | -103.6 | 0.698 | 2.1 | -9.1 | -6.6 | 36.3

The final 2 records of the part above come first, to join the parts.
SMILES | FGF22 binding | UCH37 DUB inh | Ecoli growth | ALR H2O2 inh | Beta2AR agonist | LANA-H2B inh | HNF4A DNA FP
Cc1cc([N+](=O)[O-])nn1CCCC(=O)NC(C)c1ccccc1 (centres undefined) | i | 2.4 | 0.709 | -3.6 | -5.9 | -2.9 | 4.8
NC(=O)c1ccc(NC(=O)COC(=O)/C=C/c2cn(-c3ccccc3)nc2-c2cccnc2)cc1 | i | -103.6 | 0.698 | 2.1 | -9.1 | -6.6 | 36.3
COc1ccc(S(=O)(=O)Nc2ccccc2-c2nc3ccccc3[nH]c2=O)cc1 | i | -7.4 | 0.65 | 1.8 | -9.3 | -2.8 | 0.2
CCC(=O)c1ccc(OCC(=O)Nc2ccccc2C(=O)N2CCCCC2)cc1 | i | 4.7 | 0.719 | -5.8 | 4.0 | 8.2 | -1.5
Cc1[nH]n(-c2ccccc2)c(=O)c1C(c1cccc([N+](=O)[O-])c1)c1c(C)[nH]n(-c2ccccc2)c1=O | i | 4.2 | 0.645 | -0.9 | 19.2 | 4.5 | -2.4
Cc1noc(C)c1C(=O)NCCC1=CCCCC1 | . | 2.4 | 0.653 | -0.1 | 0.2 | 0.4 | 1.9
O=[N+]([O-])c1cccc(NC(=S)N2CCN(S(=O)(=O)c3ccccc3)CC2)c1 | i | 1.2 | 0.714 | 9.6 | 7.3 | -0.4 | -3.2
Cn1cc(/C=C2\SC(=S)N(NC(=O)c3cccc(Cl)c3)C2=O)c2ccccc21 | i | 10.7 | 0.731 | . | -3.5 | . | -25.7
COC(=O)c1cc(S(=O)(=O)NCC2CCN(Cc3ccccc3F)CC2)c[nH]1 | i | 4.1 | 0.71 | -9.7 | -16.2 | 0.3 | 5.3
CN1CCN(c2oc(Cc3cccc4ccccc34)nc2C#N)CC1 | i | 4.1 | 0.674 | -12.8 | 7.4 | -6.0 | 1.5
O=C(NC1CCCC1)C(c1ccncc1)N(C(=O)c1csnn1)c1ccc(F)cc1 (centres undefined) | i | 4.8 | 0.675 | -3.3 | 4.3 | 18.4 | 3.0
COc1ccc(NC(=S)Nc2ccc(F)cc2)cc1 | i | 6.6 | 0.669 | -17.9 | -2.8 | -0.2 | -0.2
O=C(/C=C/c1cccc(F)c1)OCC(=O)c1ccc[nH]1 | i | 1.1 | 0.698 | 4.7 | -13.1 | -1.8 | 2.3
CC(C)(C)OC(=O)[C@H](Cc1ccccc1)NC(=O)c1nc[nH]c1C(=O)NCCCCCN | i | 1.5 | . | 0.8 | 1.4 | 2.3 | -1.9
COc1ccccc1C(=O)Nc1ccc(C(=O)N2CCCC2)cc1 | . | -1.2 | 0.695 | -0.4 | -10.6 | 4.3 | 1.9
CC1CCCCN1CC(=O)Nc1cc(S(=O)(=O)N2CCOCC2)ccc1N1CCCC1 (centres undefined) | i | 3.8 | 0.704 | -21.5 | -0.3 | -2.1 | 3.1
COc1cc(NC(=O)c2cc([N+](=O)[O-])ccc2NC(=O)CN2CCN(c3ccccn3)CC2)cc(OC)c1 | i | 2.0 | 0.697 | . | 21.9 | -9.3 | 4.6
COC(=O)[C@H](CC(C)C)NC(=O)Nc1ccc(S(N)(=O)=O)cc1 | i | -2.7 | 0.699 | -0.3 | 1.1 | 3.9 | -5.4
CCOc1ccc(CCNC(=O)CN2C(=O)CCSc3ccccc32)cc1OCC | i | 0.4 | 0.686 | 2.0 | -10.8 | -4.3 | -2.6
CCCCC(=O)Nc1cccc(-c2nnc(-c3ccccc3)o2)c1 | . | 2.3 | 0.694 | 2.3 | 4.3 | 0.3 | 1.5
O=C(/C=C/Nc1ccccc1)c1ccccc1 | . | -6.2 | 0.718 | -0.9 | 4.5 | -0.9 | -0.5
CC(=O)Nc1cccc(C(=O)Nc2cccnc2)c1 | . | -0.1 | 0.664 | -5.3 | -1.1 | 4.7 | -1.7
Cc1ccc(SC(=O)c2c([N+](=O)[O-])c(C)nn2C)cc1 | i | 5.2 | 0.688 | . | 24.1 | -2.2 | -1.1
COc1ccccc1NC(=O)C1=C(C)Nc2ncnn2C1c1ccccc1C (centres undefined) | . | -14.3 | 0.654 | 4.3 | -6.4 | 4.4 | 4.5
COc1ccc(NC(=O)c2ccccc2NC(=O)C2CCCO2)cc1 (centres undefined) | . | -0.5 | 0.619 | -1.8 | -1.6 | 0.2 | -0.3
Cc1ccc(S(=O)(=O)Nc2nncs2)cc1 | . | 5.2 | 0.714 | 10.9 | -4.8 | -2.0 | 1.8
Cc1ccc(C(=O)C(OC(=O)c2cnccn2)c2ccccc2)cc1 (centres undefined) | i | 3.4 | 0.719 | 0.1 | -1.4 | 3.4 | -2.1

The results go on:
SMILES | FGF22 binding | UCH37 DUB inh | Ecoli growth | ALR H2O2 inh | Beta2AR agonist | LANA-H2B inh | HNF4A DNA FP
COCCn1c(-c2ccccc2)cnc1SCC(=O)Nc1cccc2ccccc12 | . | 1.4 | 0.671 | -7.6 | 4.7 | 0.0 | -0.7
C=CCn1c(=O)c2ccccc2n2c(SCC(=O)NCC)nnc12 | i | 1.9 | 0.695 | -2.6 | -4.7 | 0.3 | 1.8
COc1ccccc1CNC(=O)c1cc(C)nc2ccccc12 | i | 0.3 | 0.691 | -0.1 | -7.4 | -0.2 | 1.6
O=C(O)/C=C/c1ccc(Cn2ccnc2)cc1 | i | 4.8 | . | -1.3 | 1.4&-22.1 | -2.3 | 3.5&2.3
Cn1c(SCc2ccc(C#N)cc2)nnc1-c1ccncc1 | i | 1.9 | 0.709 | -2.4 | -0.9 | 0.1 | -2.2
CCOC(=O)c1c(N2C(=O)Nc3cc(Cl)c(Cl)cc3N2O)sc2c1CCCCC2 | . | 0.8 | 0.742 | 66.2 | 3.0 | -2.8 | -3.1
CC1Cc2nc(SCC(=O)N3CCCc4ccccc43)n(C)c(=O)c2S1 (centres undefined) | i | 3.7 | 0.724 | . | 1.4 | 5.4 | -2.5
CCCn1c(SCC(=O)N2CCCC(C)C2)nnc1-c1ccccn1 (centres undefined) | . | -2.9 | 0.736 | 0.2 | 4.0 | 0.2 | 0.8
CCn1nc(C)c(NC(=O)CCCSc2nc(-c3ccco3)cc(C(F)(F)F)n2)c1C | . | -0.4 | 0.69 | -4.0 | -19.5 | 0.2 | 0.3
CCOc1ccccc1NC(=O)COC(=O)c1cc[n+]([O-])cc1 | i | 0.3 | 0.642 | . | -5.1 | 4.0 | 4.8
COc1cc(NS(=O)(=O)c2ccc(NC(=O)/C(=C/c3ccccc3Cl)NC(=O)c3ccccc3)cc2)nc(OC)n1 | . | 3.7 | 0.698 | 0.6 | -0.2 | -0.4 | 1.3
O=C(CNC(=O)c1ccc(Br)o1)Nc1ncccc1O | i | 0.9 | 0.667 | -28.6 | 2.2 | -1.3 | -0.5
CC(=O)Nc1nc2ccccc2n1Cc1ccc(C)cc1 | i | -0.3 | 0.612 | . | -5.8 | -1.3 | -2.0
CCCN(CCC)Cc1c(C(=O)N/N=C/C(C)=C\c2ccco2)nnn1-c1nonc1N | i | . | . | -12.8 | -10.3 | -1.6 | 1.4
O=C(CSc1nnc(-c2ccco2)o1)c1ccc[nH]1 | i | 5.1 | 0.651 | 97.7* | -0.5 | 4.5 | -3.5
Cc1ccc(N(C(=O)C(F)(F)F)C(C(=O)NC2CCCCC2)c2cccs2)cc1 (centres undefined) | . | 4.4 | 0.725 | 7.4 | 9.5 | 1.2 | 0.4
